Screens (PubChem BioAssay)
HCMV UL50-53 inh: disrupts HCMV UL50-UL53 complex binding; HTRF UL50-UL53 interaction, normalized percent inhibition; inhibition, % (no concentration beside the values); 0.15% of 190,000 active;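 active = both replicates at 50% or more, plus weaker picks with an unusually low signal ratio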;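 note: stock transfer was 100 nL into about 20 µL; 0% = negative control wells and 100% = wells with untagged competitor protein; inactives centre near -12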
Sa growth inh: inhibitors of Staphylococcus aureus growth at 42 °C. S. aureus RN4220 growth, OD600, 20 h; hits give low values. AID 720641. 0.53% of 170,000 active. relative growth, % (concentration not given with the values);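 active = growth at 42 °C up to 50% and 20 or more points under that at 30 °C, or under 10% at both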;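 note: 300 nL library stock went into each well; scaled to the means of positive and negative controls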
GIV-Gai inh: blocks GIV peptide binding to rat Galpha-i3. percent of control (FP), % (no concentration beside the values). AID 1224905. 0.42% of 210,000 active. Galpha-i3/FITC-GIV peptide fluorescence polarization, 90 min; hits give low values; scaled: aluminum fluoride 0%, vehicle 100%. P08753;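 active = replicate mean at 85% of control or lower, very high polarization wells dropped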;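 note: wells of about 15 µL received 100 nL stock; the first replicate is given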
Target sequence (P08753 whole entry, looked up): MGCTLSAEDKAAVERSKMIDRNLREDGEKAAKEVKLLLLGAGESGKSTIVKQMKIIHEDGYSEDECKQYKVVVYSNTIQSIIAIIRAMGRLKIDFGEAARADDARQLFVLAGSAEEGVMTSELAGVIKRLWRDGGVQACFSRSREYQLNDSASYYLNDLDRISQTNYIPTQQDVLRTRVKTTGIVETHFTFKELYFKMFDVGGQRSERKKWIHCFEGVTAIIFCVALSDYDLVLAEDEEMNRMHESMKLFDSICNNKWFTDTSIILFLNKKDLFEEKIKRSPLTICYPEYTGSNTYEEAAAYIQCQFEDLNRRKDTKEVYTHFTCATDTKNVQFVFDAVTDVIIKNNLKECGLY
Sa growth inh second temp: recorded beside Sa growth inh, whose call it bears; relative growth, %; measured here: growth at 30 °C;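 optical density after 20 h as mean of two plates; 100% = untreated growth and lower means inhibition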
* marks the source's active call; other numbers are inactive results; nt = no result given; & = joins results of further samples.

SMILES	HCMV UL50-53 inh	Sa growth inh	Sa growth inh second temp	GIV-Gai inh
CCCc1nc(C)cc(N2CCOCC2)n1	-1&-10	96	97	101&103
O=C(NCCOc1ccc2ccccc2c1)c1cccnc1	-16	98	81	103
CCN(CC)C(=O)Cn1ncc2c(C)n(Cc3ccccc3F)c(C)c2c1=O	nt	104	89	101
CC(C)S(=O)(=O)c1cscc1NC(=O)c1ccc(Cl)cc1	3	95	90	101
Cc1cccc(NC(=O)CCS(=O)(=O)c2ccc3c(c2)n(C)c(=O)c(=O)n3C)c1	-7	111	88	108
Cc1nc(C)c(C(=O)O)cc1C(=O)O	-14	97	90	103
O=C(NCC1CC1)c1ccc(Oc2cc(Cl)cc(Cl)c2)o1	-16	98	79	103
Cc1nn(CC(C)C)c2sc(C(=O)O)cc12	-6	99	93	nt
COc1ccc(C(Cl)=C(c2ccc(OC)cc2)c2ccc(OC)cc2)cc1	-18&-23	98	95	nt
CS(=O)(=O)N1CCC(C(=O)NCCc2ccccc2)CC1	nt	100	83	95
CCOC(=O)C1CCN(CC2=NS(=O)(=O)c3ccccc3N2)CC1	9	nt	nt	100
O=C(Cn1nc2n(c1=O)-c1ccccc1SC2)c1cccs1	-16	108	73	106
C=CCSc1ncccc1C(=O)NCc1ccc(C)cc1	nt	97	89	103
CCn1nnc2cc(C(=O)N3CCC(C(=O)OC)CC3)ccc21	-38	94	83	nt
CCn1c2c(c(=O)n3ncc(C(=O)N4CCN(c5ccc(Cl)cc5)CC4)c13)CN(Cc1ccc(OC)cc1)CC2	nt	76	79	104
CC(NC(=O)C1CC2CCCC(C1)C2=O)c1ccccc1 (stereo not given)	1	101	110	101
CCN(CC)C(=O)c1sc(N2C(=O)Nc3ccccc3N2O)c(C(=O)OC)c1C	nt	99	82	105
Cc1nnc(Sc2cc(C(=O)NCCN(C)Cc3ccccc3)c3ccccc3n2)s1	nt	99	84	106
NC(=O)NNc1cccc2cccnc12	-46	118	55	106
Cc1cc(C)c(Cn2c3ccccc3c3cnn(CC(=O)NCCc4ccccc4)c(=O)c32)c(C)c1	17	99	97	111
COc1ccc(-c2nnc(SCC(=O)Nc3ccc(Cl)cc3)s2)cc1	nt	99	69	107
CCN(CC)c1ccc(CC(=O)NC(C)Cc2ccccc2)cc1 (stereo not given)	10	119	92	nt
Cc1nc(Cc2ccc(OC(C)C)cc2)[nH]c(=O)c1CC(=O)O	15	123	91	100
CCc1nnc2sc(-c3cc(C)nc4ccc(Br)cc34)nn12	-27	nt	nt	109
N#CC1=C(S)NC(=O)CC1c1ccco1 (stereo not given)	-41	85	86	nt
More compounds:
SMILES	HCMV UL50-53 inh	Sa growth inh	Sa growth inh second temp	GIV-Gai inh
O=C(CC[n+]1ccc(/C=N/O)cc1)NCc1ccccc1	nt	116	85	107
CN1CCC(CN)CC1	-32	98	101	103
Cc1csc(SCC(=O)c2cc3ccccc3oc2=O)n1	-54	92	99	107
CCS(=O)(=O)N1CCc2cc(C(=O)NCc3ccccc3)ccc21	-11	107	92	103
O=C(Cn1c(=O)c(C(F)(F)F)nc2ccccc21)Nc1ccccc1Cl	0	nt	nt	117
Cc1nc(Nc2nc3ccccc3s2)[nH]c(=O)c1Cc1ccccc1	-11	95	99	99
O=C(NC(=O)c1ccc(F)cc1)Nc1ccc(-c2cc(C(F)(F)F)nn2-c2ccccc2)cc1	4	113	94	103
Cc1ccc(-n2c(C)cc(/C=C(\C#N)C(=O)N3CCCCC3)c2C)cc1	-1	91	92	nt
Clc1ccc(-c2noc(Cc3ccccc3)n2)cc1	-27	87	90	nt
CCOC(=O)c1nc(NCCCN(CC)c2ccccc2)c2c(C)noc2n1	2	nt	nt	103
CCN(CC)S(=O)(=O)c1ccc2[nH]cc(C(=O)NCCCN3CCN(c4ccc(OC)cc4)CC3)c(=O)c2c1	8	98	68	109
CN(Cc1c(F)cccc1Cl)C(=O)C1=CC=CN2CCS(=O)(=O)N=C12	-14	86	91	nt
CN(CCc1ccccn1)c1ncnc2c1cnn2-c1ccc(Cl)cc1	-25	83	64	102
CCC(=O)Nc1nnc(-c2ccc(Cn3c(-c4cncs4)nc4ccccc43)cc2)s1	-20	89	83	105
COC(=O)C1=C(C)N(C)C(=O)/C1=C\c1ccco1	-78	85	85	100
CC(C)(C)OC(=O)N1CCC(c2cc(=O)n3[nH]cc(C(=O)NCc4ccco4)c3n2)CC1	5	93	95	94
O=C(O)CCCCN1C(=O)CSC1=S	10	86	93	nt
Nc1nc(-c2ccc(Cl)cc2)nn1C(=O)c1ccc(Cl)cc1	-22	nt	nt	104
CC(C)(CC(=O)O)CC(=O)Nc1ccc(CC#N)cc1	5	104	94	98
Cc1cccc(CSc2nc(-c3cccs3)ccc2C#N)c1	-15	84	87	104
OC(CSc1nc(-c2ccccc2)n(-c2ccccc2)n1)C(F)(F)F (stereo not given)	-15	93	94	99
Cc1nn(-c2cc(N(C)C)ncn2)c(C)c1CCC(=O)NC1CCCCC1	-8	nt	nt	99
CC(C1CC2CCC1C2)n1c(SCC(=O)Nc2ccc3c(c2)OCO3)nnc1-c1ccco1 (stereo not given)	-11	95	98	nt
Cc1c(-c2ccnn2C(=O)c2ccco2)cnn1-c1ccccc1	-4	112	70	94
N#C/C(=C\c1ccccc1)C(=O)NC1CC1	-17	128	90	nt
More entries
SMILES	HCMV UL50-53 inh	Sa growth inh	Sa growth inh second temp	GIV-Gai inh
CN(C(=O)c1ccc(F)cc1)C1CCS(=O)(=O)C1 (stereo not given)	-32	115	87	nt
CC1CN(S(=O)(=O)c2ccc(C(=O)Nc3ccc(-c4nc5ccccc5o4)cc3)cc2)CC(C)O1 (stereo not given)	-18	nt	nt	100
O=C(Nc1ccccc1Br)C1CCCN(c2nc3cccnc3s2)C1 (stereo not given)	-28	nt	nt	105
Cc1ccc(Cl)cc1NC(=O)c1cc(-c2ccccn2)n[nH]1	0	nt	nt	101
CC1CC(C)CN(C(=O)Cn2c(=O)n(CCCC(=O)NCc3ccc4c(c3)OCO4)c(=O)c3sccc32)C1 (stereo not given)	-2	92	66	109
COCCOC(=O)C1=C(C)NC2=C(C(=O)CC(c3ccc(OC)c(OC)c3)C2)C1c1ccc(Cl)c(Cl)c1 (stereo not given)	-5	nt	nt	99
CCC1CN(C(=O)N2CCC(C(=O)NCCN(CC)CC)CC2)c2ccccc2O1 (stereo not given)	-12	115	94	102
c1ccc(N2CCN(c3nnc(Cc4cccnc4)c4ccccc34)CC2)nc1	-2	84	75	103
Cc1ccc(NC(=O)N(C2=NCC(C)(C)S2)c2ccc(F)c(Cl)c2)cc1	-26	87	86	101
CC1SCC(=O)N(CC(=O)Nc2ccc3c(c2)OCO3)C1=O (stereo not given)	6	103	92	101
CN(C(=O)CSc1nc2ccc(Br)cc2c(=O)n1Cc1ccco1)C1CCS(=O)(=O)C1 (stereo not given)	-19	81	86	nt
CS(=O)(=O)N1CCCc2cc(NS(=O)(=O)c3ccc4c(c3)OCCO4)ccc21	-10	nt	nt	107
O=C(NCCc1nc2cccnc2n1-c1ccccc1)Nc1ccccc1	-13	nt	nt	111
C=CCn1c(SCC(=O)Nc2ccccc2)nc2scc(-c3cccs3)c2c1=O	4	96	101	nt
CC(NC(=O)Oc1c(Cl)cc(Cl)c2ccccc12)(C(F)(F)F)C(F)(F)F	-22	100	51	nt
Cc1ccc(S(=O)(=O)NC(=O)Nc2ccccc2)cc1	4	104	91	nt
Cc1[nH]nc2c1C1(C(=O)Nc3ccccc31)C(C#N)=C(N)O2 (stereo not given)	3	nt	nt	112
CCc1ccc2c(CN3CCN(Cc4ccccc4)CC3)cc(=O)oc2c1	-8	103	93	nt
CC(=O)NC(=O)c1cc2cc(Cl)cc(Cl)c2oc1=Nc1cccc(F)c1	-11	nt	nt	106
Cn1ccnc1SCC(=O)Nc1ccccn1	6	88	96	101
O=C(Nn1cnnc1)c1cc2ccccc2oc1=O	-39	99	86	104
CN(C)CCCNc1ncnc2ccc(Br)cc12	-11	98	85	97
Cc1onc(-c2c(F)cccc2Cl)c1C(=O)OCC(=O)N(C)c1ccccc1	-13	128	87	nt
CCCc1nnc2sc(-c3ccc4ccccc4n3)nn12	-31	nt	nt	117
CN(Cc1ccccc1F)C(=O)CNC(N)=O	-1	83	90	nt

Pulled by structure from above:
SMILES	HCMV UL50-53 inh	Sa growth inh	Sa growth inh second temp	GIV-Gai inh
Cc1nn(CC(C)C)c2sc(C(=O)O)cc12	-6	99	93	nt
CC(NC(=O)C1CC2CCCC(C1)C2=O)c1ccccc1 (stereo not given)	1	101	110	101
Cc1cccc(CSc2nc(-c3cccs3)ccc2C#N)c1	-15	84	87	104

(further entries)
SMILES	HCMV UL50-53 inh	Sa growth inh	Sa growth inh second temp	GIV-Gai inh
CCCN(CCC)CC(O)Cn1cc(/C=C/C(=O)c2ccc(OC)cc2)c2ccccc21 (stereo not given)	-8	64	58	130
COc1ccccc1-c1nn2c(=O)cc(CN3CCN(C(=O)Nc4ccc(C)cc4Cl)CC3)nc2s1	nt	91	86	106
O=C1NN(c2ccc(Cl)c(Cl)c2)C(=O)/C1=C\C=C\c1ccccc1	-13	86	87	nt
Cc1ccc(C2c3c(oc4ccccc4c3=O)C(=O)N2Cc2ccco2)cc1 (stereo not given)	11	109	92	109
O=C(O)Cc1coc(-c2ccc(F)cc2)n1	-1	78	87	108
CCS(=O)(=O)Nc1ccc(N2CCN(c3cccc(Cl)c3)CC2)c(C(=O)O)c1	-12	nt	nt	101
O=C(Nc1ccccc1)c1nnc(COCC(=O)N2CCN(c3ccccc3)CC2)s1	4	nt	nt	110
N#Cc1sc(=S)n(-c2ccccc2)c1N	-56	97	88	96
COC(=O)c1ccc(S(=O)(=O)NC2CCN(Cc3ccccc3)CC2)n1C	-21	102	83	100
N#Cc1ccc(CSc2nnnn2C2CC2)cc1	0	104	86	nt
CC1=C(c2ccc(F)cc2)N2CCS(=O)(=O)N=C2S1	9	99	97	nt
Cc1cc(C)c(S(=O)(=O)N2CCC(C(=O)OC(C)C(=O)N3CCC(C)CC3)CC2)c(C)c1 (stereo not given)	12	95	104	nt
Cc1ccc2[nH]c3c(=O)n(CC(=O)NCc4ccc(C(C)C)cc4)cnc3c2c1	15	nt	nt	95
Cc1cc(NC(C)c2ccccc2)n2ncc(-c3ccc(F)cc3)c2n1 (stereo not given)	-6	nt	nt	96
Cn1c(=O)c2cc(C(=O)NC3CC3)sc2n(C)c1=O	-6	nt	nt	112
O=C(CCc1ccc(S(=O)(=O)N2CCOCC2)cc1)N/N=C/c1cccc(O)c1	-23	100	92	nt
COC(=O)c1ccc(COn2c(=O)c[n+]([O-])c3ccccc32)cc1	-62	96	95	110
Cc1cccc(C)c1NC(=O)C1CCCN1S(=O)(=O)c1cccc2nsnc12 (stereo not given)	-108	112	80	103
CN(Cc1ccccc1)C(=O)Cc1noc2ccccc12	-24	106	82	102
CCc1nnc(-c2cc(S(=O)(=O)N3CCC(C)CC3)c[nH]2)o1	8	nt	nt	105
O=C(COc1ccccc1Cl)NC(=O)NCC1COc2ccccc2O1 (stereo not given)	-32	82	95	nt
Cc1ccc(NC(=O)CSc2nc3n[nH]c(C)c3c(=N)n2-c2cccc(C)c2)cc1	nt	98	73	102
c1ccc2c(c1)nc(Nc1ccc3c(c1)OCO3)c1nnnn12	-7	121	93	107
COc1ccc(C(CC(=O)O)NS(=O)(=O)c2ccccc2F)cc1OC (stereo not given)	-33	80	90	nt
C(=Nc1cccc2ccccc12)c1ccc(Sc2nnnn2-c2ccccc2)o1	nt	104	85	101
Further structures.
SMILES	HCMV UL50-53 inh	Sa growth inh	Sa growth inh second temp	GIV-Gai inh
CN(C(=O)Cn1c(=O)c(C(F)(F)F)nc2ccccc21)C1CCCCC1	-32	nt	nt	102
O=C1NC(=Nc2cccc3ccccc23)SC1(CO)CO	nt	108	86	102
CCC1CCCCN1C(=O)CSc1nc2ccccc2c(=O)n1CC1COc2ccccc2O1 (stereo not given)	2	94	83	99
O=c1ccc(-c2ccccc2)nn1Cc1ccc(F)cc1Cl	-25	95	82	100
O=C1C2C3c4ccccc4C(c4ccccc43)C2C(=O)N1C(CO)(CO)CO (stereo not given)	0	108	82	108
CCN(CC)S(=O)(=O)c1cc(C)ccc1NC(=S)NCCN1CCOCC1	-28	88	89	nt
Cc1ccc(NC(=O)C(=O)NCC(c2cccnc2)N2CCOCC2)cc1C (stereo not given)	-9	103	86	109
Cn1c(=O)c(-c2noc(C(=O)NCCC3=CCCCC3)n2)nn(-c2ccccc2)c1=O	-43	nt	nt	103
CNC(=O)c1c(-c2ccc(C)cc2)nc2ccccn12	-28	80	96	nt
Cc1ccsc1C(=O)OCC(=O)N1CCC(Cc2ccccc2)CC1	9	110	81	nt
CCOC(=O)c1ccc2c(c1)nnn2CCc1ccccc1	-30	90	81	102

Exported in CSV form: six of the compounds above
SMILES,HCMV UL50-53 inh,Sa growth inh,Sa growth inh second temp,GIV-Gai inh
CCOC(=O)c1ccc2c(c1)nnn2CCc1ccccc1,-30,90,81,102
Cc1ccc(NC(=O)C(=O)NCC(c2cccnc2)N2CCOCC2)cc1C (stereo not given),-9,103,86,109
O=c1ccc(-c2ccccc2)nn1Cc1ccc(F)cc1Cl,-25,95,82,100
Cc1ccsc1C(=O)OCC(=O)N1CCC(Cc2ccccc2)CC1,9,110,81,nt
Cn1c(=O)c(-c2noc(C(=O)NCCC3=CCCCC3)n2)nn(-c2ccccc2)c1=O,-43,nt,nt,103
CCN(CC)S(=O)(=O)c1cc(C)ccc1NC(=S)NCCN1CCOCC1,-28,88,89,nt
